# Ecoli rRNA inh – selective bacterial rRNA inhibition in E. coli | AID 720706 | 1.6% of 350,000 active | GFP signal change (wild-type ribosome), % (concentration not given with the values) | E. coli WT GFP vs humanized-ribosome RFP mutants, fluorescence, 24 h; stronger effect = lower value; DMSO median 0, no signal -100;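 active = significant combined selectivity score with lowered wild-type GFP, culture density cut under 30%, mutant RFP and density less affected; inactive = any of these conditions unmet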; note: one replicate is shown; some compounds called inactive have numbers as strong as hits
# LANA-H2B inh – blocks KSHV LANA binding to histone H2A/H2B; Q9QR71; cell-free LANA-H2A/H2B peptide, fluorescence polarization; inhibition, % (concentration not given with the values); 0.6% of 320,000 active; AID 2629; in the data active = inhibition mostly above about 10%, no sharp cut-off; inactive = mostly below about 6.7%;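 note: stock transfer was 7.5 nL into about 10 µL; 0% = median of vehicle wells and 100% = median of positive control wells; one replicate is shown; the record names a cut of 25% in any replicate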
# Target sequence (Q9QR71 whole entry, looked up): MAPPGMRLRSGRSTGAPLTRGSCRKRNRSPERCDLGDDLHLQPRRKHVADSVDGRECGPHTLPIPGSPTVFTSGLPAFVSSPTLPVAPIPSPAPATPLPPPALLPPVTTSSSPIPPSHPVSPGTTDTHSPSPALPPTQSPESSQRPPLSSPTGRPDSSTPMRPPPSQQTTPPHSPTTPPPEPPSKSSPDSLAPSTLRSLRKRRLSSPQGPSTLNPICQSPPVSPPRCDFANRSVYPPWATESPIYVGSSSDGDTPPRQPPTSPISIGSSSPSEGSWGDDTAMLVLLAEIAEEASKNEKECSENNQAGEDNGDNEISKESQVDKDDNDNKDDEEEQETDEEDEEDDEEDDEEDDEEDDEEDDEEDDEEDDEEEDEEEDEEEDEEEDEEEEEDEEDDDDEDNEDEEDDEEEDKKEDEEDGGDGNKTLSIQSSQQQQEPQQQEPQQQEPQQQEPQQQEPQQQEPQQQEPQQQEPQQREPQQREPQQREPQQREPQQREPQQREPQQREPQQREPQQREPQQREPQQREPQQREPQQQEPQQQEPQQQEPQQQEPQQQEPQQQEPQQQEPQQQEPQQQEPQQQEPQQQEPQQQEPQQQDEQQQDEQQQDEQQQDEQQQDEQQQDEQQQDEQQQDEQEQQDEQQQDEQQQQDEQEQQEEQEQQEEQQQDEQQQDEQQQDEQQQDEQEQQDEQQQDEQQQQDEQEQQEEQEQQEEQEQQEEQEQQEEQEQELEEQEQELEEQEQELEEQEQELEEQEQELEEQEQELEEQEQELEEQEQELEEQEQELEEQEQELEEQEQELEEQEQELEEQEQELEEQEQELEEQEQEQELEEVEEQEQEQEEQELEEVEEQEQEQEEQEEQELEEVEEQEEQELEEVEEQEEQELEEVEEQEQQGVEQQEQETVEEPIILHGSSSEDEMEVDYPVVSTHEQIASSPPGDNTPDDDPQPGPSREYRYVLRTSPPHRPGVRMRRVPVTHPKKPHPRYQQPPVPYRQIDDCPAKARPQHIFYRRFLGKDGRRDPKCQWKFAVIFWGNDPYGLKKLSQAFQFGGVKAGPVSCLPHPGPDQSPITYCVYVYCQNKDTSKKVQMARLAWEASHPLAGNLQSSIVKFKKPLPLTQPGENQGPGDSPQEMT
# ALR inh – blocks human ALR sulfhydryl oxidase activity. purified ALR, DTT oxidation, H2O2 HRP-luminol luminescence. inhibition, % (concentration not given with the values). 3.8% of 290,000 active. AID 485317;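 active = mean and each replicate at 75% or more; inconclusive = only one of the two met; inactive = neither met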;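 note: stock transfer was 7.5 nL into about 7.5 µL; 0% = neutral wells and 100% = wells with inactivated enzyme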
# Calb FLC – affects C. albicans growth with fluconazole. growth inhibition, % (test concentration not listed). AID 1979. C. albicans CaCi-2 (fluconazole-resistant clinical isolate) + fluconazole, Alamar Blue growth, 48 h. 0.57% of 300,000 active;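 active = most replicates above 75%; inconclusive = exactly half above 75%; inactive = most below 75%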;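 note: all wells also contain fluconazole at 8 µg/ml as a sub-toxic cotreatment; 0% = median of DMSO wells and 100% = median of geldanamycin control wells; wells of about 8 µL received 7.5 nL stock; the first replicate is given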
# Bfl-1 A1 inh – inhibitors of the anti-apoptotic protein A1, read as caspase activation; MEF A1-2A-BIM cells, Caspase-Glo 3/7 luminescence, 3 h; percent of clofoctol response, vehicle zero; caspase activation, % (concentration not given with the values); 0.066% of 330,000 active; AID 2462;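 active = over half of replicate activation scores above 10%, or exactly half above 10 with the replicate mean above 10; inconclusive = replicate mean below 10 yet half the replicates above 10; inactive = over half of replicates below 10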;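 note: wells of about 30 µL received 50 nL stock; many hits fall short of the cut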
# T cruzi inh – T. cruzi replication inhibition; T. cruzi beta-gal in NIH3T3, luminescence, 90 h; inhibition, % (no concentration beside the values); 1.4% of 300,000 active;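 active = mean inhibition across valid replicates above about 55%, limit read from the data; inconclusive = mean below that limit but half or more replicates reach it; inactive = mean below it, under half of replicates reach it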;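 note: signal also drops with host cell toxicity which is not excluded here; 0% = plate median of DMSO wells and 100% = zero luminescence signal; higher percent means less beta-gal luminescence so fewer parasites; stock transfer was 50 nL into about 50 µL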
# Beta apoptosis – beta cell apoptosis inhibition; INS-1E cytokine-induced death, ATP luminescence, 48 h; percent of positive-control rescue, neutral wells zero; protection from apoptosis, % (no concentration beside the values); 0.8% of 300,000 active; AID 435005;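 active = all replicates at 75% or more, or half of them and the mean; inconclusive = half reach 75% but not the mean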;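 note: 0% = cytokine-treated negative control wells and 100% = positive control rescue; higher means more ATP so stronger rescue from cytokine killing; wells of about 40 µL received 100 nL stock; the first replicate is given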
# B2AR ag – agonists of human beta-2 adrenergic receptor inducing internalization; P07550; Am2.2-beta2AR cells, FAP receptor internalization, flow cytometry; reference of the scale not given here; response, % (test concentration not listed); 0.43% of 340,000 active; AID 504454;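 active = response above a set limit, near 3 SD of response in nonfluorescent compounds, cut at about 42% in these data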;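 note: stock transfer was 100 nL into about 11 µL; a reference agonist was the positive control; negative values mostly stem from fluorescent compounds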
# Ecoli rRNA inh OD600 – second read-out of Ecoli rRNA inh, no call of its own (marks repeat the call); OD600 change, %; measured here: OD600 growth;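 optical density of the mix in the first replicate; 0 = DMSO median and -100 = no signal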
# Ecoli rRNA inh RFP – further read-out of Ecoli rRNA inh, marked with its call; RFP signal change, %; measured here: RFP humanized mutant strains;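 first replicate; 0 = DMSO median and -100 = no signal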
# * = called active by the depositor; ? = inconclusive; . = not tested or not shown. A portion of the library, so the mix of outcomes need not match the whole.
SMILES,Ecoli rRNA inh,Ecoli rRNA inh OD600,Ecoli rRNA inh RFP,LANA-H2B inh,ALR inh,Calb FLC,Bfl-1 A1 inh,T cruzi inh,Beta apoptosis,B2AR ag
Cc1onc(-c2c(Cl)cccc2Cl)c1C(=O)Nc1nccs1,-4.2,0.5,0.8,-2.3,2.6,14.3,0.4,-22.0,3.8,1.6
O=C(Nc1ncc(Cc2ccccc2)s1)c1cccs1,.,.,.,4.9,.,10.5,-10.8,4.3,-3.6,-11.9
COCCN(C(=O)COC(=O)CCOc1cccc(C)c1)c1c(N)n(Cc2ccccc2)c(=O)[nH]c1=O,9.6,10.5,1.0,2.3,-9.1,6.2,-0.1,-4.4,-5.3,-1.6
O=C(NCC(O)c1ccc([N+](=O)[O-])cc1)c1cccc(S(=O)(=O)N2CCOCC2)c1 (stereo unspecified),0.6,10.1,1.1,-1.8,-1.5,-4.7,-0.6,-1.6,4.1,-3.7
O=C(NCC(O)CO)c1csc(Nc2cccc3ccccc23)n1 (stereo unspecified),-18.6,-25.9,-2.6,-1.5,-8.0,-2.3,0.1,0.9,.,2.4
CC[C@@H]1CC=C[C@H]2[C@H]1C(=O)N(Cc1ccccc1)[C@H]2c1ccc(C(F)(F)F)cc1,0.6,-10.4,-2.7,1.4,-6.9,-15.2,0.2,26.0,2.7,11.9
COc1ccc(C(=O)Nc2ccccc2-c2nnn(CC(=O)N3CCOCC3)n2)cc1,-0.7,9.3,1.6,6.8,-9.1,-16.5,-0.2,3.2,-2.1,5.1
O=C(C1CCN(C2CC(=O)N(c3cccc(Cl)c3)C2=O)CC1)N1CCCCCC1 (stereo unspecified),.,.,.,-4.1,0.8,-10.6,-0.1,-22.9,-6.2,7.0
O=C(/C=C/c1ccc(Cl)c(Cl)c1)NC1=NCCS1,2.9,1.2,3.6,-1.7,-8.8,14.5,3.1,-31.5,-23.7,-5.3
CC1C(=O)C(C)C(c2ccccc2F)NC1c1ccccc1F (stereo unspecified),-1.6,10.1,2.9,-2.6,3.4,6.7,0.7,1.5,-4.8,4.1
O=[N+]([O-])c1nn(-c2ccccc2)n(O)c1=NCCc1ccccc1,.,.,.,-4.5,-24.5,3.8,-1.0,58.3*,30.2,-4.3
CCOc1ccc(N=c2scc(-c3ccc(OC)cc3)n2CCO)cc1,.,.,.,-1.8,2.9,6.8,-0.4,2.0,6.1,9.3
CCOC(=O)c1ccc(NC(=S)N2CCSC2c2ccc(OC)cc2)cc1 (stereo unspecified),-11.8,-14.1,2.9,-6.5,-6.6,-14.3,-1.8,-8.8,-5.1,-1.2
O=C(Nc1ccccc1)c1ccc2c(c1)OCO2,.,.,.,4.9,-6.1,-5.2,-8.6,-10.1,5.4,-10.9
CSCCC(NS(=O)(=O)c1ccc(C)cc1)C(=O)NC1CCCCC1 (stereo unspecified),-8.2,-13.6,-3.1,2.6,-1.3,-19.8,-0.7,5.3,5.3,-1.5
CC(C)CN1CN(Cc2ccco2)CNC1=S,.,.,.,3.0,1.0,21.1,1.8,-4.6,-2.7,5.5
CCCCn1c(N)c(N(CC(C)C)C(=O)CCCc2cccs2)c(=O)[nH]c1=O,2.5,-0.9,-0.2,-7.6,-5.2,-1.9,-0.5,-4.4,-3.2,-8.4
COc1cc(NC(=O)c2cccnc2)ccc1-c1cc2ccccc2oc1=O,5.3,9.8,1.0,-6.0,0.2,-1.1,0.9,7.5,4.1,.
CC1=NOC(=O)/C1=C\c1ccc(-c2ccc(Br)cc2C(=O)O)o1,18.6,17.4,2.0,2.6,88.5*,11.7,-0.1,1.4,0.1,1.8
CC(=O)Nc1ccc(NC(=O)CCOc2ccccc2C)cc1,6.2,4.9,1.8,-7.9,-9.5,3.5,0.0,1.4,.,-4.2
O=C(CN1CCN(Cc2ccccc2)CC1)N1N=CCC1c1ccccc1 (stereo unspecified),6.9,5.5,0.8,2.1,0.6,-2.6,0.6,-0.6,1.2,-6.3
CC(=O)c1cccc(NC(=O)N2CCCC2C(=O)Nc2c(C)cccc2C)c1 (stereo unspecified),.,.,.,0.0,-14.1,5.0,0.4,4.1,1.9,-4.6
OC(CNCCC1C=Nc2ccccc21)Cn1c2ccc(Cl)cc2c2cc(Cl)ccc21 (stereo unspecified),.,.,.,-1.3,-32.3,99.3*,2.5,?,99.5*,23.3
O=C(OCC(=O)N1CCN(c2ccccc2)CC1)c1ccccn1,.,.,.,0.7,73.7,9.4,0.8,-8.4,-1.2,2.8
COCCNC(=O)C1CCC(Cn2c(=S)[nH]c3ccccc3c2=O)CC1 (stereo unspecified),.,.,.,4.1,-10.7,-4.1,0.5,-12.2,3.2,-30.2
S=c1[nH]nc(-c2cccnc2)o1,.,.,.,1.4,65.1,-6.6,0.3,-13.8,-2.8,2.1
Cc1ccc(S(=O)(=O)Nc2ccc(NC(=O)c3cccs3)cc2)cc1,8.3,4.2,6.0,1.4,-14.5,8.6,-2.9,13.5,-6.5,-4.4
O=C(O)/C=C/C(=O)NCC1CCC(CNC(=O)/C=C/C(=O)O)CC1 (stereo unspecified),14.1,7.9,1.9,0.1,-18.1,-5.1,-0.6,-15.9,-3.3,-0.8
CC(=O)Nc1ccc(C(=O)COC(=O)c2ccco2)c(F)c1,-1.5,3.4,-1.1,-0.4,-5.3,.,-2.4,.,-2.7,15.7
C=CCn1c(CCCNC(=O)C(C)(C)C)nc2ccccc21,9.2,11.3,-7.4,4.1,24.1,-5.2,1.2,8.2,1.1,2.6
COc1ccccc1NC(=O)C(C)OC(=O)C1CCC(C(C)(C)C)CC1 (stereo unspecified),5.1,5.0,0.4,-2.8,-11.0,-1.5,0.2,12.1,6.3,1.0
CNC(=S)N(CCc1cccc(C)c1)Cc1cc2cc(OC)c(OC)cc2[nH]c1=O,-13.6,-4.9,3.0,-4.4,1.9,9.8,-1.0,14.6,0.6,0.2
Cc1ccc(C)c(C(=O)CCC(=O)N2CCN(c3ncccn3)CC2)c1,11.2,5.7,0.9,4.6,10.2,-10.6,0.3,-6.5,0.3,-2.5
O=C(c1ccccc1)N1CCN(Cc2c[nH]c3ccccc23)CC1,.,.,.,-0.8,1.1,3.4,-0.3,3.8,-1.0,2.6
N#Cc1ccc(Oc2ccc(S(=O)(=O)N3CCCCC3)cn2)cc1,-0.7,4.3,-2.2,-1.6,0.0,2.7,-0.2,-2.1,1.9,4.1
CN1CCN(C(=O)CCN2C(=O)/C(=C/c3ccccc3Cl)SC2=S)CC1,-6.5,-0.2,0.0,0.2,-4.5,1.4,-0.6,10.8,-79.4,3.3
CC(C)N1C(=O)N(c2cccc(Cl)c2)C(C)(O)CC1(C)C (stereo unspecified),7.5,13.0,1.3,-0.8,-1.7,-0.6,1.2,7.8,-2.4,-2.4
Cc1ncc([N+](=O)[O-])n1Cc1ccc(Cl)cc1,-4.3,-14.2,7.7,-4.1,-6.0,-4.1,1.2,0.1,-0.4,7.5
Cc1oc(C(=O)Nc2ccc(C(=O)O)cc2)cc1COc1ccccc1,.,.,.,-1.8,96.8*,-3.4,-0.1,-14.7,-7.2,22.8
Cn1cccc1-c1cc(C(=O)N/N=C/c2ccc([N+](=O)[O-])cc2)[nH]n1,0.9,-5.3,-3.1,-5.3,.,-11.5,0.3,-8.7,15.0,-1.8
CCC(=O)N/N=C(\C)CC(=O)Nc1ccc(F)cc1,17.4,20.3,4.2,5.6,-0.9,-3.1,0.1,2.0,-2.5,5.9
Cc1occc1C(=O)Nc1ccc2c(c1)OCO2,.,.,.,-2.4,2.8,-2.6,-8.6,3.4,4.5,5.9
O=C(O)Cn1cnc2scc(-c3ccccc3)c2c1=O,4.1,8.3,-0.8,-7.4,-5.7,24.1,1.7,-19.8,0.5,-5.5
COc1ccc(CCN2C(=O)C3C4CC(C5C(C(=O)NN)=NOC45)C3C2=O)cc1OC (stereo unspecified),.,.,.,-3.8,65.6,-1.7,0.5,-0.2,4.8,-1.2
CCOc1ccc(NC(=O)CSc2nnc(N)s2)c([N+](=O)[O-])c1,-17.8,-11.8,0.4,-0.2,-4.5,3.1,0.5,6.8,4.8,-6.2
Cc1cccc(-n2c(C)nc3cc(C(=O)NCc4ccc5c(c4)OCO5)ccc32)c1,-15.1,-31.0,6.1,-2.5,2.0,1.6,0.1,9.8,2.6,7.4
Cc1cc(C)nc(Nc2ncc(O)n2-c2ccc(C)c(Cl)c2)n1,.,.,.,-5.7,4.5,-1.8,0.8,-1.8,2.3,0.6
Cc1ccccc1NS(=O)(=O)c1ccc(OCC(=O)NCC2CCCO2)cc1 (stereo unspecified),3.4,-0.1,2.6,-3.5,-2.0,-16.5,-0.7,-8.9,-2.6,12.4
O=[N+]([O-])c1nn(-c2ccccc2)[n+]([O-])c1N1CCN(c2ccccc2)CC1,18.8,18.1,1.0,-0.3,-4.1,-10.4,0.7,84.7*,-1.6,4.6
COc1ccc(NC(=O)CCCC(=O)O)cc1Cl,10.8,-0.7,0.3,1.7,-4.2,1.4,-0.8,-16.0,-7.9,-1.0
O=c1[nH]c(N2CCc3ccccc3C2)nc2c1CCC2,.,.,.,1.8,-1.7,-2.4,0.6,2.3,-11.5,-0.9
Cc1nn(C)c(Cl)c1CN1CCC(CO)(CCOc2ccccc2)CC1,0.7,5.9,0.8,1.5,-5.4,-1.9,0.2,4.1,-4.3,0.6
C=CCN(C(=O)CNC(=O)c1ccco1)C(C(=O)NC1CCCC1)c1ccc(OC)cc1 (stereo unspecified),0.2,1.7,-1.6,-1.1,-0.9,4.3,-0.3,-4.8,2.1,-5.9
Cc1ccc(C(=O)NC2CCc3ccccc3C2=O)cc1 (stereo unspecified),14.1,-3.4,2.8,1.0,-13.3,-28.3,-3.8,-11.5,-0.2,3.0
Cc1ccc(S(=O)(=O)N(Cc2ccccc2)c2ccccc2C(=O)Nc2ccccc2C(=O)NCc2ccco2)cc1,8.8,11.0,4.7,-2.0,.,1.7,0.9,40.5,0.9,0.3
COc1cc(C(=O)NC(C)c2cccc3ccccc23)cc(OC)c1OC (stereo unspecified),10.3,13.4,1.1,-1.2,-13.0,0.0,-0.3,-7.8,0.0,-1.4
O=C(NCCN1CCOCC1)/C(=C/c1ccco1)NC(=O)c1ccccc1,12.3,15.5,-1.4,-3.3,-1.9,-1.5,1.3,-6.1,-2.2,-3.8
O=C(O)/C=C1\NC(=O)c2ccccc21,.,.,.,-0.8,.,4.5,-0.5,-6.0,.,12.0
CCOc1ncccc1C(=O)N1CCN(C(c2ccccc2)c2ccccc2)CC1,19.4,17.6,1.1,2.4,3.1,11.3,0.9,21.3,-7.4,7.4
O=C(c1ccc(Cl)c(S(=O)(=O)Nc2ccc(F)cc2)c1)N1CCN(c2ccccn2)CC1,.,.,.,-3.4,3.5,4.2,0.1,17.7,-1.4,-7.6

# Screening results deposited in PubChem by several laboratories.
